# RN4220 kill: S. aureus RN4220 growth inhibition | OD600, 16 h | actives 0.33% (n = 330,000) | inhibition, % (concentration not given with the values);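 active means z-score of -3 or lower and OD600 up to 0.18 on both plates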;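 further: plate controls were untreated cells for no effect and reference antibiotic for full effect; stock transfer was 100 nL into about 80 µL; one replicate is shown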
# BJeLR lethal: kills HRASV12-expressing BJeLR cells | BJeLR (HRASV12) viability, CellTiter-Glo ATP luminescence, 48 h; reference of the scale not given here | inhibition, % (no concentration beside the values) | actives 0.17% (n = 300,000) | AID 1554;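 active means replicate mean above 50%; inconclusive means above 50% but judged a plate artefact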;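 further: 50 nL library stock added to about 25 µL; numbers are from one replicate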
# Mtb hypoxia rep: Mtb hypoxia fluorescent reporter inhibition; M. tuberculosis hypoxia-regulated fluorescent reporter, fluorescence; fluorescence inhibition, % (test concentration not listed); actives 0.1% (n = 300,000);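 active means 35 to 45% if threefold the growth effect, above 45% if 1.5-fold the growth effect; inactive means the rest, general growth blockers included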;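 further: wells of about 50 µL received 100 nL stock; 0% = vehicle wells and 100% = reference inhibitor wells; whole bacteria with a GFP reporter of the hypoxia response; strong numbers were not always called active; many hits fall short of the cut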
# Bead autofluor: compound fluorescence in toxin protease inhibitor counterscreen; fluorescence intensity (concentration not given with the values); actives 3.1% (n = 360,000); compound autofluorescence counterscreen, microsphere flow cytometry; active compounds read high; AID 624483;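 active means at least 3 SD above the mean of all compounds, about 16000 in these data; inconclusive means too few beads counted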;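 further: 100 nL of 1 mM stock went into each well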
# PrP 5UTR inh: inhibition of PrP 5' UTR reporter expression | cell-based PrP 5' UTR mRNA reporter, plate reader | inhibition, % (test concentration not listed) | actives 0.35% (n = 340,000) | AID 488862;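 active means every replicate at 50% or more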;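 further: 0 = median of the neutral control wells; tested in H4 reporter cells; numbers are from one replicate; inactives centre near -14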
# ugtP null kill: kills S. aureus RN4220 lacking UgtP; S. aureus RN4220 ugtP deletion, OD600 growth, 16 h; some inactives read as strong as hits; AID 1259309; actives 0.54% (n = 330,000); growth inhibition, % (no concentration beside the values);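 active means z-score under -3 and OD600 up to 0.15 on both plates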;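 further: plate controls were untreated wells for no effect and antibiotic for full effect; wells of about 80 µL received 100 nL stock; the first replicate is given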
# Mtb hypoxia rep growth: further read-out of Mtb hypoxia rep, marked with its call; growth inhibition, %; measured here: M. tuberculosis growth (absorbance);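 0% = vehicle and 100% = reference antibiotic; read after six days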
# Starred values were filed as active, the others as inactive; ? = inconclusive; . = not tested or not shown; & = joins results of further samples. Rows are unselected; any-hit rate near 3.9%.
mol	RN4220 kill	PrP 5UTR inh	Mtb hypoxia rep	ugtP null kill	Bead autofluor	Mtb hypoxia rep growth	BJeLR lethal
CN(C)S(=O)(=O)c1cccc(COC(=O)c2cnccn2)c1	-2.7	-26	5	2	3490	6	-15
COc1ccc(C)cc1NC(=O)CSc1nnnn1C1CCCC1	.	-9	.	.	3587	.	7
O=C(CCCCCN1C(=O)c2ccccc2C1=O)Nc1ccc(C(=O)O)cc1	1.7	-30	-14	10	3880	1	4
COc1cc(/C=C2\SC(=S)N(CC(=O)O)C2=O)ccc1OC(=O)c1ccco1	4.6	-6	8	10	5733	7	-3
CCCN1Cc2cccc(C(=O)NCc3cccs3)c2C1=O	3.9	-1	.	5	4009	.	-9
Cc1ccccc1Oc1ccccc1N	6.6	-18	5	5	4602	1	0
Cc1cc(C)cc(-c2nnc(SCc3ccc(C(=O)O)cc3)o2)c1	21	-21	2	16	4081	4	-8
O=C(OCCCc1cc2ccccc2c(=O)o1)N1CCOCC1	0.4	-17	3	-17	3430	6	.
COC1CCN(C(=O)CC2C(=O)NCCN2CC(C)(C)C)CC1 (stereo unspecified)	1.3	-16	0	-4	2508	-2	-5
Cc1cc(C(=O)N2CCC(C)CC2)on1	0.7	11	15	3	4430	4	0

# The list goes on:
mol	RN4220 kill	PrP 5UTR inh	Mtb hypoxia rep	ugtP null kill	Bead autofluor	Mtb hypoxia rep growth	BJeLR lethal
CS(=O)(=O)c1ccccc1C(=O)Nc1ccc(-c2nc3ccccc3o2)cc1	0.4	-69	-11	-8	4786	0	-10
CCC(=O)n1nc(-c2ccc(Cl)cc2)nc1SC	-2.6	-41	.	3	.	.	4
COC(=O)c1cscc1NC(C)=O	-0.5	-33	.	4	4872	.	-1
O=c1c2ccccc2nc(-c2ccccc2)n1-c1cccnc1	3.7	-12	9	2	22832*	11	7
CCC1CCc2sc(C(=O)NC3CCN(Cc4ccccc4)CC3)cc2C1 (stereo unspecified)	-0.4	-20	13	5	7108	8	-3
N#CCC(Cc1ccccc1)N1CCC(O)CCC1=O (stereo unspecified)	1.9	.	18	0	.	7	.
COc1ccc(/C=C/C(=O)Nc2cc(C)nn2-c2nc3ccccc3n2Cc2cccc([N+](=O)[O-])c2)cc1	2.4	0	10	0	2486	3	-9
C=CCNC(=O)c1c(CSc2ccc(Cl)cc2)noc1C(=O)NCCC	9.0	-14	3	15	3547	-2	-4
Cc1cccc(NS(=O)(=O)c2ccc3[nH]c(=O)cc(C(=O)OC(C)C(=O)Nc4ccc([N+](=O)[O-])cc4)c3c2)c1 (stereo unspecified)	-1.0	-24	1	10	4679	0	-13
Cc1ccc(CC(=O)OCC(=O)NC2CCCC(C)C2C)cc1C (stereo unspecified)	3.4	1	.	-6	2980	.	0

# Other entries follow:
mol	RN4220 kill	PrP 5UTR inh	Mtb hypoxia rep	ugtP null kill	Bead autofluor	Mtb hypoxia rep growth	BJeLR lethal
CCOC(=O)C1(CCCc2ccccc2)CCN(C(=O)C2CCCN(C(N)=O)C2)CC1 (stereo unspecified)	1.2	-20	-3	10	2616	4	0
CC(C)OC(=O)c1cccnc1SCC(=O)N(C)c1ccccc1	7.4	9	9	13	8409	12	1
Cc1ccc(Cl)cc1NC(=O)CN1C(=O)NC(C)(C2CC2)C1=O (stereo unspecified)	2.1	-17	-13	1	8631	3	.
Cc1nccc(-c2ccc(-n3cnc4ccccc43)cc2)n1	4.0	-11	6	-1	3775	14	1
Cc1ccccc1-c1nc2ccccc2[nH]1	-15	-53	16	-4	2335	15	4
CCCCn1c(CNC(=O)Cc2ccccc2)nc2ccccc21	11	-14	6	19	6521	7	-16
Cc1cccc(NC(=O)c2cc(S(=O)(=O)N3CCCCC3)ccc2Cl)n1	14	-7	11	10	5792	4	.
Clc1ccc(OC2CCN(Cc3nc(CC4CC4)no3)CC2)cc1	5.2	-21	15	5	3109	1	-4
O=C(NN=C1CC2CC=CC12)c1ccc(O)cc1 (stereo unspecified)	1.7	.	3	3	.	3	.
CC(=O)N=c1sc2cc(C)ccc2n1C	5.8	-108	7	2	6946	4	2

# Continuation:
mol	RN4220 kill	PrP 5UTR inh	Mtb hypoxia rep	ugtP null kill	Bead autofluor	Mtb hypoxia rep growth	BJeLR lethal
COCCN(C(=O)c1ccc(NC2CC2)c([N+](=O)[O-])c1)c1c(N)n(CC(C)C)c(=O)[nH]c1=O	1.7	-4	0	0	9036	-6	.
S=C(Nc1ccccc1)N1CCN(C2CCCCC2)CC1	-0.5	-7	.	19	2635	.	-6
O=C(Nc1ccc(N2CCN(C(=O)c3cccs3)CC2)cc1)c1ccc(F)cc1	3.7	-11	1	3	2949	1	-14
Cc1ccc(C(=O)OCC(=O)N(CC(C)C)c2c(N)n(Cc3ccccc3)c(=O)[nH]c2=O)cc1[N+](=O)[O-]	0.5	-9	2	1	8317	-1	2
CCN1CC2C3C(=O)N(Cc4ccccc4)C(=O)C3[C@](Cc3ccccc3)(C1=O)N2C(=O)c1ccccc1 (stereo partly specified)	2.8	.	-5	-6	.	2	.
Cc1ccc(-c2nn3cnnc3c3ccccc23)cc1	1.0	-12	12	-2	2543	10	-6
Cc1cccc(N2CCN(S(=O)(=O)c3c(C)[nH]c(C)c3C(=O)N3CCCCC3)CC2)c1C	-0.1	4	-1	-9	5131	8	1
CC(C)CN(C(=O)c1ccc(-n2cncn2)c([N+](=O)[O-])c1)C1CCS(=O)(=O)C1 (stereo unspecified)	0.9	-26	6	2	?	-3	-9
CCOc1ccc2nc(NC3=NC(c4ccc(OC)cc4)CC(=O)N3)nc(C)c2c1 (stereo unspecified)	14	-22	13	-15	13783	5	-1
CC(NCc1cccnc1)=C(C#N)C(=O)NCc1ccccc1	2.6	.	4	-4	.	4	.

# More records
mol	RN4220 kill	PrP 5UTR inh	Mtb hypoxia rep	ugtP null kill	Bead autofluor	Mtb hypoxia rep growth	BJeLR lethal
Cc1nn(CC(=O)Nc2c(C)n(C)n(-c3ccccc3)c2=O)c(C)c1[N+](=O)[O-]	4.6	-9	1	3	4431	-2	-15
Cc1ccc(CSCCNC(=O)CSc2ccccc2)cc1	-2.5	1	4	1	2675	-4	-8
Cc1ccc(C)c(N2CCN(C(=O)CCc3nc(-c4cccc(C(F)(F)F)c4)no3)CC2)c1	3.5	-77	-3	14	3801	4	.
COc1ccc(CN(C)CC(O)COc2ccc(-c3ccccc3)cc2)cc1OC (stereo unspecified)	-1.3	-10	0	-2	4672	3	-3
Cc1ccc(CCNC(=O)C2CCN(S(=O)(=O)N3CCCC3)CC2)cc1	1.0	-1	7	2	9467	10	0
O=C(NCCCSc1ccccc1)c1cccnc1	-3.3	-26	0	-8	5373	5	1
CCn1cc(C2=NC(c3ccccc3)CO2)c2ccccc21 (stereo unspecified)	5.9	-28	-5	5	4512	-5	0
O=C(CC1CC=CCCC(=O)OCC2CCCN2C1=O)NC(CO)Cc1ccccc1 (stereo unspecified)	5.3&2.9	.	8&-4	1&-2	.	3&8	.
CCn1nc(C(=O)NNC(=O)CCOc2cc(C)ccc2C)c2ccccc2c1=O	3.2	-8	11	4	5135	9	-2
COc1ccccc1N/C(=N/S(=O)(=O)c1ccc(Cl)cc1)c1ccccc1	5.8	-7	12	7	11366	12	1

# (continued)
mol	RN4220 kill	PrP 5UTR inh	Mtb hypoxia rep	ugtP null kill	Bead autofluor	Mtb hypoxia rep growth	BJeLR lethal
COc1ccc(-c2nnc(SCC(=O)Nc3ccc4c(c3)OCCO4)n2N)cc1OC	8.9	-31	1	-11	10029	9	-9
COc1ccc(NC(=S)NN=Cc2ccc(F)cc2)cc1OC	4.4	.	7	3	.	16	.
CN(CC1CCOCC1)C(=O)CC1C(=O)NCCN1Cc1ccccc1F (stereo unspecified)	4.1	-15	9	8	7455	8	6
Cc1cc(C(=O)NN=Cc2cc([N+](=O)[O-])cc(C)c2O)n[nH]1	13	.	6	6	.	-7	.
O=C(Cn1nc(C(=O)O)c2ccccc2c1=O)Nc1nc(-c2ccccc2)cs1	5.7	-44	13	10	4486	11	5
CCOc1ccc(NC(=O)CN2CCN(CC(=O)Nc3ccc(C(=O)OC)cc3)CC2)cc1	4.8	-16	.	7	2280	.	10
Cc1cc(Nc2cccc(C)c2C)n2ncnc2n1	2.7	-11	.	-10	4281	.	-4
O=C(c1cc2ccccn2n1)N1CCN(c2cccc(C(F)(F)F)c2)CC1	2.0	-6	0	1	20114*	-5	-7
CN(C(=O)c1nn(C)c2c1CSc1ccccc1-2)c1ccccc1Cl	9.9	-7	9	1	6366	-3	9
CCCCNC(=O)C1CCN(S(=O)(=O)N2CCOCC2)CC1	3.0	-40	23	6	3259	9	2

# Continued, starting with the last four of the part before.
mol	RN4220 kill	PrP 5UTR inh	Mtb hypoxia rep	ugtP null kill	Bead autofluor	Mtb hypoxia rep growth	BJeLR lethal
Cc1cc(Nc2cccc(C)c2C)n2ncnc2n1	2.7	-11	.	-10	4281	.	-4
O=C(c1cc2ccccn2n1)N1CCN(c2cccc(C(F)(F)F)c2)CC1	2.0	-6	0	1	20114*	-5	-7
CN(C(=O)c1nn(C)c2c1CSc1ccccc1-2)c1ccccc1Cl	9.9	-7	9	1	6366	-3	9
CCCCNC(=O)C1CCN(S(=O)(=O)N2CCOCC2)CC1	3.0	-40	23	6	3259	9	2
Cc1ccccc1-n1ncc2c1CC(C)(C)CC2NC(=O)CCCN1CCCC1=O (stereo unspecified)	-0.6	-25	6	2	5559	10	4
Cc1cccc(NC(=O)CSCc2cc(=O)n3c(C)csc3n2)c1C	3.0	-2	1	4	5963	1	-3
O=C1CC(C(=O)Nc2ccccc2)S/C(=N\N=C\c2ccco2)N1 (stereo unspecified)	.	19	.	.	10196	.	4
NS(=O)(=O)c1ccc(CNC(=O)c2ccc3ccccc3n2)cc1	4.8	-9	1	9	6211	-4	-6
COCCNC(=S)N(CCc1c(C)[nH]c2ccc(C)cc12)Cc1ccco1	3.8	-8	8	-10	4676	5	-2
COc1ccc(/C=C2\Sc3ccc(C(=O)NCc4cccnc4)cc3N(C)C2=O)cc1OC	8.3	-21	13	9	3277	9	4
CC(C)C(=NNS(=O)(=O)c1ccc(Br)cc1)c1cccs1	12	.	-15	-3	.	-3	.
CC1CCCC(NC(=O)c2ccc3c(=O)n(CC4CCCO4)c(=O)[nH]c3c2)C1C (stereo unspecified)	0.6	-26	5	-1	6822	9	2
C=CCNC(=S)Nc1ccc(Cl)cc1F	0.0	-25	9	3	4211	4	6
CCN(CC)CCCNC(=O)CCC(=O)NNc1nc2ccccc2c2nc(C)nn12	-0.3	-9	8	12	2562	4	0

# Following part.
mol	RN4220 kill	PrP 5UTR inh	Mtb hypoxia rep	ugtP null kill	Bead autofluor	Mtb hypoxia rep growth	BJeLR lethal
COC(=O)c1ccccc1S(=O)(=O)N(Cc1ccco1)Cc1cc2cc(OC)ccc2[nH]c1=O	5.4	-10	8	-1	22912*	6	-2
O=C(N/N=C\c1ccc(Cl)s1)c1ccc(Cn2cccn2)o1	.	-22	.	.	2505	.	-4
Cc1cc(C(=O)Nc2cccnc2)cs1	3.7	-17	-1	3	23010*	-3	-6
CC(C)C(=O)NCC(c1cccs1)S(=O)(=O)c1ccc(F)cc1 (stereo unspecified)	2.0	-10	1	3	5462	4	-5
Cc1c(Cl)cccc1NC(=O)Nc1cccnc1	0.3	1	2	7	4684	-2	2
S=C(Nc1ccccc1)N1CCn2c1nc1ccccc12	4.9	-15	12	18	4232	9	8
O=C(CSc1nc(-c2ccc(F)cc2)nc2c1Cc1ccccc1O2)Nc1ccc(C(=O)O)cc1	11	-32	10	13	4322	12	.
CCOC(=O)c1nnn(-c2nonc2N)c1CN1CCc2ccccc2C1	2.6	-14	1	-3	20264*	-1	1
CCOC(=O)C1(Cc2ccc(OC)cc2)CCN(C(=O)C2=CCCC2)CC1	3.9	-9	18	-1	4494	7	-1
N#CCCN1CCNCC1	4.2	-8	6	0	2293	3	6

# (next part)
mol	RN4220 kill	PrP 5UTR inh	Mtb hypoxia rep	ugtP null kill	Bead autofluor	Mtb hypoxia rep growth	BJeLR lethal
CC(C)(C)C1CCc2[nH]c3ccccc3c(=O)c2C1 (stereo unspecified)	4.3	-29	-14	1	2563	-4	-6
CC1CCN(C(=O)c2ccc(NS(C)(=O)=O)cc2)CC1	1.7	-12	4	-3	19949*	8	3
NC(=O)[C@H]1CC2(CC(c3cccc(NC(=O)COc4ccc(Cl)cc4)c3)=NO2)CN1C(=O)CC(c1ccccc1)c1ccccc1 (stereo partly specified)	.	-12	.	.	4097	.	-3
O=C(O)c1cc(Cl)ccc1OS(=O)(=O)c1ccc(Cl)s1	5.9	-22	17	4	3920	3	.
